Mtb growth: Confirmatory growth inhibition assay against Mycobacterium tuberculosis H37Rv, potency (AID 1949); most inactive calls were filed without a number and no value below 0 was filed; one-dose inhibition, % at 10 µg/mL; IC50 in µg/mL for titrated hits; 100,000 compounds, 1.6% hits;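 active = confirmed in a dose series; inconclusive = about 50% or more but not retested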;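 also: bacteria grown 7 days with compound before Alamar blue readout; 0% = untreated bacteria and 100% = reference antibiotic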
* = called active by the depositor; i = inactive; ? = inconclusive. The list is partial. The share of hits here may be higher or lower than overall.

mol,Mtb growth
CCCN(CC1CC1)C(=S)Nc1ccc(OCC)cc1,i
O=C(CSC1=NCCS1)c1ccc2c(c1)OCCO2,i
CCCCCCc1c(C)c2cc(Cl)c(O)c(CN(C)C)c2oc1=O,i
CCCOc1ccc2c(C)c(CC(=O)OC)c(=O)oc2c1,4%
Cc1ccc(SC(C)C(=O)Nc2cc([N+](=O)[O-])ccc2C)cc1 (stereo not given),i
O=C(CSc1nc(-c2ccc(F)cc2)cc(C(F)(F)F)n1)NCCN1CCOCC1,i
CCN(CC)C(=O)c1ccc(S(=O)(=O)N2CCCCC2)cc1,i
Cc1ccc(NC(=O)C(C)Oc2ccc(C)c(C)c2)c(C)c1 (stereo not given),5%
CCCCn1nnnc1NCc1ccc(OC)c(OC)c1,2%
CC(C)CC(=O)Nc1ccc(I)cc1Cl,i
CNC(=O)c1ccc(CN2CCN(Cc3ccc(C(=O)NC)o3)CC2)o1,i
CCC(C)NC(=O)NCc1ccccc1F (stereo not given),i
C(=NN1CCN(C2c3ccccc3-c3ccccc32)CC1)c1cccnc1,34%
CSc1ccc(CNCCN2CCOCC2)cc1,i
CCOC(=O)C1=C(C)N(C)C(=O)C1CC(=O)O (stereo not given),i
COc1c(C)cc(Br)cc1C(=O)NC(=S)Nc1cccc(NC(=O)c2ccccc2)c1,i
Cc1nn(-c2ccccc2)c(C)c1NC(=S)NC(=O)c1cccs1,5%
CCOC(=O)c1ccc(NC(=S)Nc2ccc(OC)cc2OC)cc1,i
CNC(=O)OC(C)CNS(=O)(=O)c1ccc(C)cc1 (stereo not given),i
CCN(C1=NS(=O)(=O)c2ccccc21)c1ccccc1,i
CCOc1ccc(NC(=O)Nc2ccc(OC(F)F)c(Cl)c2)cc1,2%
CS(=O)(=O)N(Cc1ccc(C(=O)NC2CCCCC2O)cc1)c1ccccc1 (stereo not given),i
COc1cccc(C(=O)N2CCN(C)CC2)c1OC,i
c1ccc(Cn2c(-c3cncs3)nc3ccccc32)cc1,5%
COc1ccc(NC(=O)Nc2cccs2)cc1,1%
Oc1ccc(NCc2cccc(OCc3ccccc3)c2)cc1,?
CCCCSc1ccc(NCCC(=O)c2ccco2)cc1,0.42µg/mL*
Cc1ccc(-n2cc3c(c2-c2ccccc2)c(=O)n(C)c(=O)n3C)c(C)c1,i
CCc1ccc(CCC(=O)Nc2cc(C(F)(F)F)ccc2Cl)o1,i
O=C(CN1C(=O)c2ccccc2C1=O)N1CCCC1,i
CCOC(=O)COc1ccc(CCNC(C)=O)cc1,i
Cc1ccc(C)c(-n2c(Cc3cccs3)n[nH]c2=S)c1,i
CCOc1ccc(C(=O)Nc2ccc(-c3nc4ccccc4[nH]3)cc2)cc1,i
CCOc1ccc(N2C(=O)CNC2=S)cc1,3%
COc1ccc(Cl)cc1N(CC(=O)Nc1cc(C)ccc1C)S(C)(=O)=O,0%
O=C1CC(N2CCC(C(O)(c3ccccc3)c3ccccc3)CC2)C(=O)N1Cc1cccs1 (stereo not given),i
O=C(NCc1ccc2c(c1)OCO2)c1ccc(Cl)s1,5%
O=C(Cc1c(F)cccc1Cl)N1CCCC1,i
Cc1ccc(-c2noc(CCC(=O)NC(C)(C)C)n2)cc1,i
Cc1cccc(C(=O)NNC(=O)c2ccccc2C)c1,i

A draw from above in order of number of heavy atoms, rising.
mol,Mtb growth
O=C(NCc1ccc2c(c1)OCO2)c1ccc(Cl)s1,5%
Cc1ccc(-c2noc(CCC(=O)NC(C)(C)C)n2)cc1,i
Oc1ccc(NCc2cccc(OCc3ccccc3)c2)cc1,?
CCOc1ccc(C(=O)Nc2ccc(-c3nc4ccccc4[nH]3)cc2)cc1,i
CS(=O)(=O)N(Cc1ccc(C(=O)NC2CCCCC2O)cc1)c1ccccc1 (stereo not given),i

(further entries)
mol,Mtb growth
Cc1cccn2c(=O)c3cc(S(=O)(=O)c4ccccc4)c(=N)n(C)c3nc12,i
O=C(O)c1ccc(NC(=S)NC(=O)c2ccc(-c3ccc(Br)cc3)o2)cc1,i
CN1CCCC(OC(=O)c2ccc(C(C)(C)C)cc2)C1 (stereo not given),i
CCN1CCN(C(=O)c2ccccc2NC(=O)c2ccc(F)cc2)CC1,i
CNC(=O)C(=O)Nc1ccc(Cl)cc1,i
COc1cc(C(=O)NC(=S)Nc2ccc(Cl)c(-c3nc4ccc(C)cc4o3)c2)cc(OC)c1OC,i
CCCOc1ccc(C2c3c(oc4ccccc4c3=O)C(=O)N2c2nccs2)cc1 (stereo not given),i
CC1(C)Cc2nc3sc4c(SCC(=O)NCc5ccccc5)ncnc4c3cc2CO1,i
Fc1ccccc1Nc1ncnc2sc3c(c12)CCCC3,i
COC(=O)c1c(-c2ccc(Br)cc2)csc1NC(=O)C1CCCCC1C(=O)O (stereo not given),8%
COCCCNC(=S)N1CCN(C(=O)c2ccco2)CC1,i
CCn1c(CCc2ccccc2)nnc1SCC(=O)Nc1ccc(Cl)cc1Cl,1%
O=C(NCc1cccc(CNC(=O)c2cccnc2)c1)c1cccnc1,i
CCn1c(SCC(=O)Nc2cc(C)cc(C)c2)nnc1-c1ccc(C)cc1,0%
COc1ccc(CCNC(=O)c2ccc(CNS(=O)(=O)c3cccc(Cl)c3)cc2)cc1OC,3%
Cc1ccc(NC(=S)Nc2ccc(C)c(C)c2)cc1,32%
Cc1ccc(C(=O)Nc2cc(C)c(O)c(C)c2)cc1,i
CCOc1ccc(N(CC(=O)NC2CCCCCC2)S(=O)(=O)c2ccc(Cl)cc2)cc1,i
COc1ccc(C2C3C(=NN2C(C)=O)C2CCN3CC2)cc1 (stereo not given),i
CC(Oc1ccc(NC(=O)c2cccs2)cc1)C(=O)c1cccc(Cl)c1 (stereo not given),i
Oc1c(CN2CCN(c3ccc(F)cc3)CC2)cc(Cl)c2cccnc12,1.1µg/mL*
COc1ccccc1NC(=S)NCCCO,i
COC(=O)c1c(NC(=S)N2CCN(C(=O)C3CCCO3)CC2)sc2c1CCC2 (stereo not given),i
Cc1ccc(C(=O)Oc2ccc(F)cc2)cc1,i
CCOc1ccc(Nc2cc(N(C)C)c3nonc3c2[N+](=O)[O-])cc1,i
Cc1ccc(S(=O)(=O)N2CCCC2C(=O)NCCc2nc3ccccc3[nH]2)cc1 (stereo not given),i
COc1ccc(S(=O)(=O)Nc2ccncc2)cc1N(C)S(=O)(=O)c1ccccc1,i
O=C(Nc1cccc(C(F)(F)F)c1)c1cccnc1N1CCN(CCO)CC1,i
CCN(CC)c1ccc(NC(=O)Cc2ccc(Cl)cc2)c(C)c1,i
CCOC(=O)CSc1nc(SCC(=O)OCC)c2c3c([nH]c2n1)CCCC3,34%
COc1ccc(/C=N/N=C2\NC(=O)C(Cc3ccc(Br)cc3)S2)cc1OC (stereo not given),i
O=C(CSc1nc(-c2ccco2)cc(C(F)(F)F)n1)N1CCc2ccccc21,i
CCN(CC)C(=O)C(=O)Nc1c(F)cccc1F,i
N#C/C(=C/c1cccc(Cl)c1)c1nc(-c2cc3ccccc3oc2=O)cs1,i
Cc1ccc(OC(F)F)c(NC(=S)Nc2cccc([N+](=O)[O-])c2)c1,2%
CC(C)c1ccc(Nc2ncnc(N)c2[N+](=O)[O-])cc1,i
Cc1nn(C)c(C)c1CN1CCN(C(=S)Nc2ccc(S(N)(=O)=O)cc2)CC1,i
CCSc1nnc(-c2ccc(C)cc2)n1-c1ccccc1,i
Cc1nnc(SCC(=O)Nc2ccc3c(c2)OCO3)s1,i
O=C(O)c1cc(NCc2ccccc2C(F)(F)F)ccc1N1CCOCC1,i
O=C(CCN1C(=O)C2C3C=CC(C4CC34)C2C1=O)Nc1ccc(F)cc1 (stereo not given),i
COc1ccc(C(=O)N2CCC(C(N)=O)CC2)cc1OC,i
CCOc1ccc(N2C(=O)CC(NC3CCCCC3C)C2=O)cc1 (stereo not given),3%
Cc1c(NC(=O)c2cnn3cc(Br)cnc23)c(=O)n(-c2ccccc2)n1C,i
O=S(=O)(c1cccs1)N1CCN(S(=O)(=O)c2cccs2)CC1,i
COC(=O)C(Cc1ccc(O)cc1)NC(=O)c1cc2c(n(-c3ccc(Cl)cc3)c1=O)CCCC2=O (stereo not given),i
Cc1ccc2c(c1)C(c1ccccc1)CC(C)N2C(=O)CCCC(=O)O (stereo not given),i
O=C(Nc1cccc(Br)c1)c1ccc(-c2ccc(Cl)cc2)o1,1.4µg/mL*
COc1ccc(Br)cc1C(=O)Nc1cccc(-c2nnc(-c3ccccc3)o2)c1,i
O=C(c1cccc2ccccc12)N1CCN(c2ccccc2F)CC1,i
Cc1cc(C)cc(C(=O)Nc2ccc3c(c2)oc2ccccc23)c1,i
CC1CCCN(C(=O)C2c3ccccc3Oc3ccccc32)C1 (stereo not given),i
O=C1S/C(=C\c2ccc([N+](=O)[O-])cc2)C(=O)N1Cc1ccccc1,0%
S=C(c1ccccc1)N1CCN(C(c2ccccc2)c2ccccc2)CC1,10%
Cc1c(C=C(C#N)C#N)c(C)c([N+](=O)[O-])c(C)c1[N+](=O)[O-],24%
COc1ccc(NC(=S)NCc2cccnc2)cc1OC,i
C=CCOc1cccc(CNc2nn[nH]n2)c1,i
CC1(C)CN=C(Nc2nc3ccccc3s2)S1,?
CCOCC(=O)Nc1ccc(Cl)cn1,i
C=CCNCCOCCOc1cc(C(C)C)ccc1C,i

(listing goes on)
mol,Mtb growth
CCN(CC)S(=O)(=O)c1ccc(NC(=O)CN(c2cc(C)ccc2OC)S(=O)(=O)c2ccccc2)cc1,i
CCc1ccc(NC(=O)C(=O)N(CC)CC)cc1,4%
CCOC(=O)COc1ccc2c3c(c(=O)oc2c1C)CCC3,i
C=CCn1c(SCC(=O)Nc2cccc(C(=O)OCC)c2)nnc1-c1ccc(C)cc1,i
Cc1cc(C)nc(/N=C2\NC(=O)CC(C(=O)O)N2c2ccc(F)c(Cl)c2)n1 (stereo not given),i
CC1(C)Cc2c(sc3nc(-c4cc5ccccc5o4)n(N)c(=O)c23)CO1,i
CC(=O)Nc1cccc(OCC(=O)Nc2ccc(Cl)c(C(F)(F)F)c2)c1,4%
Cc1ccc(OCC(=O)Nc2cc(-c3nc4cc(Cl)ccc4o3)ccc2C)cc1C,i
CCCOc1ccc(S(=O)(=O)N2CCN(c3ccc(F)cc3)CC2)cc1,4%
CCCCC(=O)Nc1ccc(C(=O)NCc2ccccc2Cl)cc1,0%
Cc1ccc(SCC(=O)N2CCN(c3ccccc3)CC2)cc1,i
N#Cc1nc(-c2ccccc2F)oc1NCc1ccccc1,i
Cc1ccc(C(=O)NC(=S)Nc2ccc(SC(F)F)cc2)cc1,5%
CCc1ccccc1NC(=O)c1ccc(COc2ccc(C)cc2)cc1,7%
O=C(NC(=S)Nc1c(F)cc(F)cc1Br)c1ccc2c(c1)OCO2,i
O=C(Cc1cccs1)Nc1nc(-c2ccc(F)cc2F)cs1,?
O=C(Oc1ccc(Br)cc1)C(Cc1ccccc1)N1C(=O)c2ccccc2C1=O (stereo not given),i
Cc1ccc(C(C)C)c(OCCNC(=O)c2ccccc2Br)c1,i
O=C(CN1C(=O)C2C3c4ccccc4C(c4ccccc43)C2C1=O)N1CCOCC1 (stereo not given),i
N/C(=N\OC(=O)N1CCOCC1)c1ccccn1,i
Cc1ccc(N(CC(=O)Nc2ccccc2C(=O)N2CCCC2)S(=O)(=O)c2ccc(F)cc2)cc1,i
COc1ccc(Cl)cc1-c1nc(-c2ccncc2)no1,0%
CCC(=O)c1ccc(OCC(O)Cn2nc(C)cc2C)cc1 (stereo not given),7%
Cc1ccc(S(=O)(=O)/C(C#N)=C/c2ccccc2)cc1,i
CS(=O)(=O)NCCSCc1ccccc1,i
CCc1ccc(N(CC(=O)NC2CCCCCC2)S(C)(=O)=O)cc1,i
CCCCNCc1cc(OC)c(OC)cc1Cl,i
Cc1ccc(OCC(=O)c2ccc(C)cc2)cc1,50µg/mL*
COc1cc(SC)ccc1C(=O)Nc1nncs1,i
Cc1cc(-c2ccc(NS(=O)(=O)c3ccccc3)c(C)c2)ccc1NS(=O)(=O)c1ccccc1,i
COc1cccc(-c2nnc(SCC(=O)Nc3cccc(C(F)(F)F)c3)o2)c1,i
CSc1ccccc1NC(=O)c1cnn2c(C(F)(F)F)cc(-c3ccco3)nc12,i
NC(=O)C1(S(=O)(=O)c2ccccc2)CC1,i
COc1ccc(N(C)C2=NS(=O)(=O)c3ccccc32)cc1,i
COc1c(C)cc(Br)cc1C(=O)NC(=S)Nc1ccc2[nH]c(=O)[nH]c2c1,i
O=C(CN1CCN(Cc2ccccc2)CC1)NCCCNc1ccc([N+](=O)[O-])cc1,i
COc1cc(NC(=O)c2cccnc2)ccc1NC(=O)C(C)C,i
O=C(CCC1CCCC1)Nc1ccc(I)cc1,i
CC12CCC(C(=O)Nc3ccccc3F)(C(=O)C1=O)C2(C)C (stereo not given),i
Cc1ccc(CC(=O)NC2CCCC2)cc1,2%
CC(=O)Nc1ncc2c(n1)CC(c1ccc(N(C)C)cc1)CC2=O (stereo not given),i
CCn1c(CNC(=O)c2cccc(C)c2)nnc1SCc1ccc(Br)cc1,i
COc1ccc(C(=O)Nc2ccc(S(=O)(=O)Nc3cnc4ccccc4n3)cc2)cc1,i
CN(Cc1nnc(SCC(=O)NCCc2ccccc2)n1C)S(=O)(=O)c1ccccc1,i
